GIV-Gai inh: GIV-Galpha-i interaction inhibition; P08753; Galpha-i3/FITC-GIV peptide fluorescence polarization, 90 min; active compounds read low; scaled: aluminum fluoride 0%, vehicle 100%; percent of control (FP), % (concentration not given with the values); 210,000 tested, 0.42% active;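 active = replicate mean at 85% of control or lower, very high polarization wells dropped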;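 note: wells of about 15 µL received 100 nL stock; the first replicate is given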
Target sequence (P08753 whole entry, looked up): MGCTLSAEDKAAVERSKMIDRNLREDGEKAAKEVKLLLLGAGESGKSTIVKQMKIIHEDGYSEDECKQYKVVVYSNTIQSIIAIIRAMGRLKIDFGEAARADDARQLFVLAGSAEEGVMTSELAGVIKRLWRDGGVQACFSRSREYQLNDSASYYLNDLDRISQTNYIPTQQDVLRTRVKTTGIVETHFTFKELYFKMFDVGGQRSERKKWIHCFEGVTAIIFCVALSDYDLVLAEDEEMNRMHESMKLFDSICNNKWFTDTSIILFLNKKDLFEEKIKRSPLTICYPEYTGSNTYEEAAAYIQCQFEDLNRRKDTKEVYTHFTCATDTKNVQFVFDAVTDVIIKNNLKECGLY
HCMV UL50-53 inh: disrupts HCMV UL50-UL53 complex binding | inhibition, % (no concentration beside the values) | 190,000 tested, 0.15% active | HTRF UL50-UL53 interaction, normalized percent inhibition | AID 1918969;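 active = both replicates at 50% or more, plus weaker picks with an unusually low signal ratio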;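 note: stock transfer was 100 nL into about 20 µL; 0% = negative control wells and 100% = wells with untagged competitor protein; inactives centre near -12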
Sa growth 42C: inhibitors of Staphylococcus aureus growth at 42 °C. 170,000 tested, 0.53% active. S. aureus RN4220 growth, OD600, 20 h; active compounds read low. relative growth, % (concentration not given with the values);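 active = growth at 42 °C up to 50% and 20 or more points under that at 30 °C, or under 10% at both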;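 note: 300 nL library stock went into each well; scaled to the means of positive and negative controls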
Sa growth 42C second temp: also measured in Sa growth 42C; calls as there; relative growth, %; measured here: growth at 30 °C;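 optical density after 20 h as mean of two plates; 100% = untreated growth and lower means inhibition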
An asterisk follows results filed as active; · = not tested or not shown; & = joins results of further samples.

SMILES | GIV-Gai inh | HCMV UL50-53 inh | Sa growth 42C | Sa growth 42C second temp
COc1cc(-c2cc(OC)c3c(C)oc(C)c3c(=O)c2)ccc1OC(=O)c1ccccc1F | 109 | -50 | 101 | 78
CC(C)(C)OC(=O)N1CCC(OCC(=O)O)CC1 | 101 | -6 | 81 | 90
CC(C)c1cc(C(=O)O)no1 | 100 | -10 | 86 | 89
c1ccc(-c2noc(CCC3CCCC3)n2)cc1 | 100 | -5 | 115 | 93
O=C1C2CC=CCC2C(=O)N1CN1CCN(Cc2ccccc2)CC1 (stereo not given) | · | -50 | 88 | 88
Cc1ccc(-c2noc(CSc3nnc(C)n3-c3ccc(C)cc3)n2)cc1 | 109 | 8 | 88 | 87
CCOC(=O)C(Cc1c[nH]c2ccccc12)NC(=O)COc1ccc(CC)cc1 (stereo not given) | 107 | -42 | 91 | 80
Cc1cc2ccccc2c(N=Cc2cc(Br)cc(Br)c2O)c1C#N | 100 | -34 | 84 | 89
Cc1cccc(OCc2cc(=O)n3cc(C)sc3n2)c1 | 99 | -6 | · | ·
COc1ccc(OC)c(S(=O)(=O)Nc2cc(C(=O)O)ccc2N2CC3CC(C2)c2cccc(=O)n2C3)c1 (stereo not given) | 104 | -2 | 102 | 97
Oc1ccc(-c2cccc(-c3ccc(O)cc3)n2)cc1 | · | -8 | 113 | 6
Cc1ccc(NC(=O)CN(C)C(=O)C2COc3ccccc3O2)cc1 (stereo not given) | · | -28 | 70 | 97
Cc1ccc(NS(=O)(=O)c2ccc3[nH]c(=O)sc3c2)cc1F | 99 | · | 75 | 55
CC1CCCC(C)N1C(=O)C1CC(c2ccc(F)cc2)=NO1 (stereo not given) | 105 | · | 97 | 96
Cc1c(C=Nc2ccc3c(c2)OCCO3)c2ccccc2n1C | · | -20 | 112 | 84
CCN1CCN(c2csc3ccc(C)cc3c2=O)CC1 | 103 | · | 92 | 89
O=C(CCCn1c2ccccc2c2cn[nH]c(=O)c21)NCc1ccccc1 | 105 | -9 | 106 | 84
c1coc(CN=C2NC(=NCc3ccco3)c3ccccc32)c1 | · | -80 | 91 | 91
Nc1nnc(COc2ccccc2)s1 | 103 | -12 | 93 | 85
Cc1ccc(C(=O)OCC(N)=O)cc1N | · | 4 | 94 | 104
COCCNC(=O)c1cccc(NC(=O)C2=C(C)OCCS2)c1 | 105 | -19 | 87 | 88
CSc1ccc(C2C3(C#N)C(N)=NC4(OCCO4)C23C#N)cc1 (stereo not given) | 107 | -31 | 93 | 82
CCCc1[nH]n(-c2ccccc2)c(=O)c1C(C)=NCCOC | 107 | 2 | 83 | 95
Clc1ccc(OCc2nnc3sc(-c4c[nH]c5ccccc45)nn23)cc1 | 102 | 11 | · | ·
CC(=O)N(C)N1c2ccccc2CCc2ccccc21 | 98 | -10 | 89 | 72

Next part (two carried over from the part before).
SMILES | GIV-Gai inh | HCMV UL50-53 inh | Sa growth 42C | Sa growth 42C second temp
Clc1ccc(OCc2nnc3sc(-c4c[nH]c5ccccc45)nn23)cc1 | 102 | 11 | · | ·
CC(=O)N(C)N1c2ccccc2CCc2ccccc21 | 98 | -10 | 89 | 72
Cc1nc(N)nc(N(C)C)n1 | 104 | -3 | 126 | 98
CC(C)N1CCn2c(nc3cc(NC(=O)NC4CCCCC4)ccc32)C1 | 99 | -48 | · | ·
COc1ccc(-c2nn3c(=O)cc(CN4CCN(C(=O)c5ccc(C(C)(C)C)cc5)CC4)nc3s2)cc1 | 103 | · | 91 | 90
O=C(OCc1ccccc1)c1cccc(-c2nnn(Cc3ccccc3)n2)c1 | · | -7 | 94 | 92
C=C1N(C)c2ccc(NC(=O)c3ccccc3)cc2C1(C)C | · | -34 | 8.3* | 4.9*
C=CCNc1nc(CC(=O)OCC)cs1 | · | -4 | 97 | 79
C=CCN(CC=C)S(=O)(=O)c1ccc(C(=O)Nc2ncc(S(=O)(=O)c3ccc([N+](=O)[O-])cc3)s2)cc1 | 104 | -22 | · | ·
COc1ccc(NC(=O)c2cc(-c3ccccn3)n[nH]2)cc1OC | 101 | -8 | · | ·
CCn1c2c(c(=O)n3ncc(C(=O)Nc4cccc(Cl)c4C)c13)CN(Cc1ccc(OC)cc1)CC2 | 105 | · | 74 | 77
Cc1ccc(-c2nc3nc(C)cc(NC(C)C)n3n2)cc1 | 107 | -16 | · | ·
COc1ccc(CNC(=O)CSc2nc(-c3ccc(OC)cc3)cc(C(F)(F)F)n2)cc1 | 105 | -24 | 92 | 91
C=CCn1c(C)cc(C(=O)COC(=O)C2CCN(C(=O)Nc3ccccc3)CC2)c1C | · | -18 | 86 | 87
Cc1nnc(SCC(=O)N(c2ccccc2)C(C)C)n(N)c1=O | 104 | -38 | 89 | 89
CCOC(=O)Cc1nc(C)cc(C)n1 | · | -27 | 111 | 93
O=C1CCCC2=C1C(c1cccc(Br)c1)Nc1ccccc1N2 (stereo not given) | 98 | · | 111 | 89
CC(c1ccccc1)n1c(SCC(=O)c2ccc3c(c2)OCCO3)n[nH]c1=O (stereo not given) | 104 | -14 | 94 | 93
CCOC(=O)c1c(C)[nH]c(C)c1S(=O)(=O)N1CCC(C(=O)N2CCc3ccccc3C2)CC1 | 99 | -7 | · | ·
COC(=O)C(C)Sc1nc(N)c(NC(=O)c2ccco2)c(=O)[nH]1 (stereo not given) | 100 | -29 | 92 | 88
CCOC(=O)C1=C(CSCC(=O)OCc2ccc(C#N)cc2)NC(=O)NC1C (stereo not given) | · | -2 | 97 | 89
CCOc1ccc(CN(C)C(=O)C2=NNC(=O)CC2)cc1 | · | -32 | 81 | 95
Cc1cc(C)c(S(=O)(=O)N(C)CC(=O)NCc2ccco2)c(C)c1 | 102 | -13 | 114 | 85
CN1CCCc2cc(C(CNC(=O)c3ccc(Br)cc3)N3CCOCC3)ccc21 (stereo not given) | 101 | -4 | · | ·
CSc1cccc(NC(=O)C2CCCN2S(=O)(=O)c2ccccc2)c1 (stereo not given) | 100 | -18 | 97 | 78
OCC1(CO)CSC(Nc2ccccc2)=N1 | 97 | -2 | 100 | 106
O=C(Oc1ccccc1C(=O)O)c1ccccc1O | · | -10&-4 | 104 | 95

Reformatted with two lines to a compound: entries from further up
Second line of a record: GIV-Gai inh	HCMV UL50-53 inh	Sa growth 42C	Sa growth 42C second temp
> C=CCN(CC=C)S(=O)(=O)c1ccc(C(=O)Nc2ncc(S(=O)(=O)c3ccc([N+](=O)[O-])cc3)s2)cc1
 : 104	-22	·	·
> COc1ccc(NC(=O)c2cc(-c3ccccn3)n[nH]2)cc1OC
 : 101	-8	·	·
> CCn1c2c(c(=O)n3ncc(C(=O)Nc4cccc(Cl)c4C)c13)CN(Cc1ccc(OC)cc1)CC2
 : 105	·	74	77
> Cc1ccc(-c2nc3nc(C)cc(NC(C)C)n3n2)cc1
 : 107	-16	·	·
> COc1ccc(CNC(=O)CSc2nc(-c3ccc(OC)cc3)cc(C(F)(F)F)n2)cc1
 : 105	-24	92	91
> C=CCn1c(C)cc(C(=O)COC(=O)C2CCN(C(=O)Nc3ccccc3)CC2)c1C
 : ·	-18	86	87
> Cc1nnc(SCC(=O)N(c2ccccc2)C(C)C)n(N)c1=O
 : 104	-38	89	89
> CCOC(=O)Cc1nc(C)cc(C)n1
 : ·	-27	111	93
> O=C1CCCC2=C1C(c1cccc(Br)c1)Nc1ccccc1N2 (stereo not given)
 : 98	·	111	89
> CC(c1ccccc1)n1c(SCC(=O)c2ccc3c(c2)OCCO3)n[nH]c1=O (stereo not given)
 : 104	-14	94	93
> CCOC(=O)c1c(C)[nH]c(C)c1S(=O)(=O)N1CCC(C(=O)N2CCc3ccccc3C2)CC1
 : 99	-7	·	·
> COC(=O)C(C)Sc1nc(N)c(NC(=O)c2ccco2)c(=O)[nH]1 (stereo not given)
 : 100	-29	92	88
> CCOC(=O)C1=C(CSCC(=O)OCc2ccc(C#N)cc2)NC(=O)NC1C (stereo not given)
 : ·	-2	97	89
> CCOc1ccc(CN(C)C(=O)C2=NNC(=O)CC2)cc1
 : ·	-32	81	95
> Cc1cc(C)c(S(=O)(=O)N(C)CC(=O)NCc2ccco2)c(C)c1
 : 102	-13	114	85
> CN1CCCc2cc(C(CNC(=O)c3ccc(Br)cc3)N3CCOCC3)ccc21 (stereo not given)
 : 101	-4	·	·
> CSc1cccc(NC(=O)C2CCCN2S(=O)(=O)c2ccccc2)c1 (stereo not given)
 : 100	-18	97	78
> OCC1(CO)CSC(Nc2ccccc2)=N1
 : 97	-2	100	106
> O=C(Oc1ccccc1C(=O)O)c1ccccc1O
 : ·	-10&-4	104	95

(further entries)
SMILES | GIV-Gai inh | HCMV UL50-53 inh | Sa growth 42C | Sa growth 42C second temp
CCCSc1nnc(Nc2ccccc2F)s1 | · | -9 | 93 | 90
O=C(COc1ccc(F)cc1)Nc1ccc2oc(-c3ccccc3F)nc2c1 | 104 | -30 | · | ·
CC1Cc2cc(S(=O)(=O)NCc3ccccc3)ccc2N1C(=O)C1CC1 (stereo not given) | 104 | 3 | 151 | 108
CCOc1ccc(N=C2C(=O)N(CN3CCCCC3)c3ccccc32)cc1 | 106 | · | 92 | 87
CCCN1CCc2nc(N3CCOCC3)ncc2C1 | 108 | -29 | 99 | 95
CCOc1cc(/C=N/n2c(C)nnc2-n2nc(C)cc2C)cc(Br)c1O | 102 | -30 | 86 | 86
CCOC(=O)Cc1csc(SCN2C(=O)c3ccccc3C2=O)n1 | · | -47 | 66 | 88
COc1ccc(C(=O)OCC(=O)N(C2CCCCC2)C2CCS(=O)(=O)C2)c(O)c1 (stereo not given) | · | -28 | 84 | 96
O=C(Nc1cc(-c2nc3ccccc3o2)ccc1Cl)c1ccc(N2CCCCC2)c([N+](=O)[O-])c1 | 107 | -13 | 98 | 90
CC(C)C(=O)Nc1scc(-c2ccccc2)c1C(=O)O | · | -32 | 152 | 89
CCn1cc(/C=C(\NC(=O)c2ccccc2)C(=O)N2CCCC2)c2ccccc21 | 101 | · | 64 | 56
O=C1N=c2ccccc2=C1c1s/c(=N/N=C2\C(=O)Nc3ccccc32)n(-c2ccc(O)cc2)c1O | 100 | -33 | 94 | 87
Cc1ccc(-n2c(C)c(Br)c3c2CCCC3=O)cc1 | · | -10 | 96 | 101
CC(C)(C)OC(=O)N1CCN(S(=O)(=O)c2ccc(Cl)cc2)CC1 | 100 | · | 88 | 89
c1ccc(-c2nc3ccccn3c2Nc2ccc3c(c2)OCO3)cc1 | 108 | · | 94 | 94
CC1CCN(C(=O)CCCOc2cc(=O)n(C)c3ccccc23)CC1 | 106 | 11 | · | ·
CC1=NN(c2ccccc2)C(=O)/C1=C/c1cn(CC(O)CN2CCOCC2)c2ccccc12 (stereo not given) | 109 | -80 | 105 | 76
COC(=O)CC1=CC(C)(CC(=O)OC)C(C#N)(C#N)C(N)=C1C#N (stereo not given) | · | -33 | 71 | 90
Fc1ccc(-c2nc3cnccn3c2Nc2ccc3c(c2)OCO3)cc1 | 106 | -34 | · | ·
CC(NC(=O)C(=S)N1CCCC1)c1ccccc1 (stereo not given) | 113 | 5 | 105 | 87
COCCNc1ccc(-c2nc(-c3cccc(C)c3)no2)cc1[N+](=O)[O-] | 97 | -14 | 103 | 92
COc1ccc(C(=O)O/N=C(\N)c2ccccc2)cc1 | 101 | -22 | 81 | 85
CCN(CC)c1ccc(C=C2C(=O)N(C)C(=O)N(C)C2=O)c(OCc2ccc(Cl)cc2Cl)c1 | · | -4 | 97 | 87
CC1CCCCC1NC(=O)C1CCCN(c2nc3ccccc3o2)C1 (stereo not given) | 106 | · | 127 | 84
COC(=O)Cn1ccc2cc(S(=O)(=O)N3CCCCCC3)ccc21 | 97 | -2 | 106 | 87
Continued.
SMILES | GIV-Gai inh | HCMV UL50-53 inh | Sa growth 42C | Sa growth 42C second temp
O=C(c1ccco1)N(c1ccccn1)C1CCCCC1 | · | -8 | 108 | 98
NC(=O)C1CCN(c2cc(C(F)(F)F)ccn2)CC1 | 107 | -4 | 103 | 88
C=CC(=O)NCC(c1cccs1)N1CCOCC1 (stereo not given) | · | -34 | 98 | 88
CCOC(=O)C1CCC(CN(Cc2ccc(Cl)cc2)S(=O)(=O)c2cccc(Cl)c2C)CC1 (stereo not given) | 99 | · | 121 | 87
O=C(CC(=O)N1CCCCC1)N1CCCCC1 | · | -40 | 93 | 80
Cc1ccc(CSc2nc(=O)n(C3CCCC3)c3c2CCC3)cc1 | 104 | -2 | · | ·
CCOC(=O)N1CCC(NC(=O)c2cc3c(s2)-c2ccccc2OC3)CC1 | 102 | · | 105 | 95
CCOC(=O)CN1CCC(n2nnc3cc(C(F)(F)F)ccc32)CC1 | 107 | 6 | 87 | 72
COc1cc2nc(Nc3cccc(C)c3)nc(N)c2cc1OC | 103 | -7 | 110 | 95
Cc1cc(C)cc(NC(=O)CCc2nnc3n(CC(C)C)c(=O)c4ccccc4n23)c1 | 100 | -31 | 87 | 85
CCOC(=O)C1=C(N)OC2=C(C(=O)CC(C)(C)C2)C1c1c(Cl)cccc1Cl (stereo not given) | 100 | -11 | · | ·
CNc1cc(NS(=O)(=O)c2ccc(N)cc2)nc(NC)n1 | 112 | 4 | · | ·
Cc1nc2c(=O)n(-c3cc(C(F)(F)F)ccc3Cl)nc(C)c2s1 | 100 | -24 | 99 | 86

Bioassay records as filed in PubChem.
